Source: PubChem
HPGD block – blocks human HPGD enzyme activity; hit rate 4.3% among 150,000; Potency, µM, for the others: at the top dose activity change, negative = inhibition, hits mostly inhibitors; AID 894; purified HPGD, NADH fluorescence kinetic, PGE2 substrate; active = well fitted inhibition curve with a large enough effect (not every such curve was filed as active); inconclusive = small, poorly fitted or top-dose-only effect, or another doubt; inactive = no such curve, though single readings can be large or run the other way;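 further: top concentration of the series not given in the record; plate controls included wells without enzyme; inactives centre near -10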
Target sequence (P15428 whole entry, looked up): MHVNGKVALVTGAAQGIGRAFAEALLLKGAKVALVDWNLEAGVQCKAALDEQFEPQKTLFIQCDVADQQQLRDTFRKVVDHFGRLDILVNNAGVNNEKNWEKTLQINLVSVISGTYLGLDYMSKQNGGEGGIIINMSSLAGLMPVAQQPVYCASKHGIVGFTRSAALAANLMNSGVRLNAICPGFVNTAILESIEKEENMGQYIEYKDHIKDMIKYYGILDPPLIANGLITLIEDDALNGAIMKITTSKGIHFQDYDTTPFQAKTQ
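20 nM HPGD preincubated 15 min at room temperature with compound in 50 mM Tris-HCl pH 8, 0.01% Tween 20. Started with 1 mM NAD+ and 30 uM prostaglandin E2; NADH fluorescence (360/450 nm) read 5 times over 30-s intervals, last minus first.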
Numbers without * were called inactive; ? = inconclusive. On the % scale 0 is the no-effect control and ±100 the full control effect; potency means the concentration at half of the fitted maximal effect. This is a subset; rates above refer to the full screens.

| HPGD block | smiles |
| --- | --- |
| ? | CC1CCN(c2oc(-c3cccc4ccccc34)nc2C#N)CC1 |
| -10% | O=C(Nn1c(O)c(C=C2N=c3ccccc3=N2)sc1=S)c1ccccc1 |
| -11% | Cc1nn(C)cc1/C=C/C(=O)c1ccccc1 |
| -16% | Cc1nc2c([nH]c3ccc(Br)cc32)s1 |
| -13% | COc1ccc(-c2c(C)cc3oc(=O)cc(-c4ccccc4)c3c2C)cc1C=O |
| -19% | COC(=O)COc1cccc(NC(=O)COc2ccccc2)c1 |
| -13% | COC(=O)CSc1nc(N2CCOCC2)c2c(c1C#N)CC(C)(C)N(C)C2 |
| -7% | COc1cc(S(=O)(=O)N2CCN=C2c2ccccc2)ccc1F |
| -18% | CC1CCCC(C)N1C(=O)c1ccccc1Nc1ccc(SC(F)F)cc1 (stereo not drawn) |
| -10% | Nc1nc(-c2ccc(Cl)cc2)c(N=Nc2ccc(S(=O)(=O)N3CCOCC3)cc2)s1 |
| 4% | Cc1nc(C)c(C(=O)NNS(=O)(=O)c2ccc3ccccc3c2)s1 |
| ? | CCC(C)N=CC1=C(O)CC(c2ccccc2)CC1=O (stereo not drawn) |
| -6% | O=C(/C=C/c1ccc([N+](=O)[O-])cc1)N1CCN(c2ccccc2F)CC1 |
| -18% | CC(NC(=O)Cc1cccs1)c1ccncc1 (stereo not drawn) |
| -11% | O=C(Cn1c(=O)n(Cc2ccco2)c(=O)c2c3c(sc21)CCCC3)Nc1ccccc1 |
| 4% | COC(=O)c1ccccc1NC(=O)C1CC(=O)N(c2ccc(C)cc2)C1 (stereo not drawn) |
| -15% | N#C/C(=C\c1ccc(N2CCOCC2)cc1)c1ccccc1 |
| -4% | COc1ccc(CN(C(C)=O)c2cccc(C)c2C)cc1 |
| -12% | COc1ccc(C(=O)Oc2cc(OC)cc(OC)c2C(C)=O)cc1 |
| -10% | Cc1ccc(-n2c(=O)cc(N3CCc4ccccc4C3)[nH]c2=O)cc1 |
| 8% | CC(C)C(NC(=O)c1cccs1)C(=O)NC1=NCCS1 (stereo not drawn) |
| -10% | COc1ccc(C2C(=O)c3ccccc3C2=O)c(OC)c1 |
| 0% | O=C(CSc1nnc2ccccn12)Nc1nsc(-c2ccccc2)n1 |
| -15% | CSCc1ccc(C(=O)NCc2ccc(F)cc2)cc1 |

Structures listed so far with an aryl thioether with sulfur outside any ring, in the order listed:
| HPGD block | smiles |
| --- | --- |
| -13% | COC(=O)CSc1nc(N2CCOCC2)c2c(c1C#N)CC(C)(C)N(C)C2 |
| -18% | CC1CCCC(C)N1C(=O)c1ccccc1Nc1ccc(SC(F)F)cc1 (stereo not drawn) |
| 0% | O=C(CSc1nnc2ccccn12)Nc1nsc(-c2ccccc2)n1 |

Continued:
| HPGD block | smiles |
| --- | --- |
| -3% | O=C(Nc1nc2ccccc2s1)C1CCCO1 (stereo not drawn) |
| -10% | Cc1nn(-c2ccccc2)c(Cl)c1/C=C(\CC(=O)O)c1nc2ccccc2s1 |
| -7% | NC(N)=NS(=O)(=O)c1ccc(NC(=S)NC(=O)c2sc3ccccc3c2Cl)cc1 |
| -16% | CC1(C)Cc2cccc(OCC(=O)NC3CC3)c2O1 |
| -16% | Cc1ccccc1-n1nc2c(c1NC(=O)c1cc3ccccc3oc1=O)CS(=O)C2 (stereo not drawn) |
| -4% | COc1ccc(N2CCc3c(C)nc4c(OC)cc(OC)cc4c32)c(OC)c1 |
| -7% | CCOC(=O)C1CCCCN1Cc1cccc(C(F)(F)F)c1 (stereo not drawn) |
| -16% | C/C(=N\NC(=O)c1ccc(O)cc1)c1ccc2c(c1)Nc1ccccc1S2 |
| -16% | O=C(CCCN1C(=O)c2ccccc2C1=O)NCc1ccco1 |
| -13% | Cc1cccc(-c2csc(N)c2C(=O)OC(C)C)c1 |
| -13% | Cc1csc(NC(=O)c2c(O)c3c(n(CC(C)C)c2=O)CCCC3)n1 |
| -6% | Cc1nn(-c2ccccc2)c(N2CCCC2)c1/C=N/NC(=O)c1cc(-c2ccccn2)nc2ccccc12 |
| -12% | Cc1ccc(OCC(O)CN2CCN(CC(O)COc3ccc(C)cc3Cl)CC2)c(Cl)c1 (stereo not drawn) |
| -2% | COc1ccc(CN2C(=O)CN(C3CCCCCC3)C(=O)C2c2ccc(OC)c(OC)c2)cc1 (stereo not drawn) |
| 22µM* | Cc1ccccc1-n1nc(C)c2cc(C(=O)NC3CC3)sc21 |
| -5% | Cc1ccccc1N=Nc1ccc(O)c2ncccc12 |
| -2% | CN(C(=O)COC(=O)c1ccc(NS(=O)(=O)c2cccs2)cc1)C1CCCCC1 |
| -8% | COC(=O)c1c(C)[nH]c(C(=O)CSc2ccc(Cl)cc2)c1C |
| -11% | CCOc1ccc(S(=O)(=O)Nc2ccc(O)c(Sc3ncn[nH]3)c2)cc1 |
| 1µM* | CCCCOc1ccc(C(=O)N2CCC(C)CC2)cc1 |
| 20µM* | CC1(C)CC(=O)C(=Cc2cn(CCC#N)nc2-c2ccc(F)cc2)C(=O)C1 |
| -9% | CCN1CCN(CC(O)COc2cccc(OC)c2)CC1 (stereo not drawn) |
| -10% | NC(=S)N/N=C/c1ccc2ccccc2c1 |
| -17% | Fc1ccc(-c2csc(N3CCC(c4ccccc4)C3)n2)cc1 (stereo not drawn) |

An excerpt of these results, with each value named:
> Cc1ccc(OCC(O)CN2CCN(CC(O)COc3ccc(C)cc3Cl)CC2)c(Cl)c1 (stereo not drawn)
  HPGD block: -12%

> COc1ccc(CN2C(=O)CN(C3CCCCCC3)C(=O)C2c2ccc(OC)c(OC)c2)cc1 (stereo not drawn)
  HPGD block: -2%

> Cc1ccccc1-n1nc(C)c2cc(C(=O)NC3CC3)sc21
  HPGD block: 22µM*

> Cc1ccccc1N=Nc1ccc(O)c2ncccc12
  HPGD block: -5%

The list goes on.
| HPGD block | smiles |
| --- | --- |
| -12% | CCC(=O)N1CCn2c1nc1ccccc12 |
| -5% | CCC(=O)OC1(C)C(=O)C=C2C=C(/C=C/COC)OC=C2C1=O (stereo not drawn) |
| -20% | O=C(NCc1cn2ccsc2n1)c1cccs1 |
| -13% | COC(=O)c1[nH]c2cc(OC)ccc2c1NC(=O)CN1CCC(C(N)=O)(N2CCCCC2)CC1 |
| 0% | CCCOc1ccc(C(=O)NCC(c2cccs2)N(C)C)cc1OC (stereo not drawn) |
| -21% | Cc1ccc(Nc2nc(-c3sc(NC(=O)c4cccc(Cl)c4)nc3C)cs2)cc1 |
| -11% | NC(=O)CSc1nnc(CNc2ccc(F)cc2)n1CC1CCCO1 (stereo not drawn) |
| ? | Cc1cccc(NCc2cc(Cl)cc(Cl)c2O)n1 |
| -8% | CN(C)c1ccc(NC(=O)c2sc(SCC(=O)Nc3ccc(Br)cc3)nc2N)cc1 |
| -2% | O=C(CNS(=O)(=O)c1ccc(Br)s1)N1CCN(C(=O)c2ccco2)CC1 |
| -6% | CSc1ccc(S(=O)(=O)Nc2ccc(S(=O)(=O)Nc3ccc(C)cc3)cc2)cc1 |
| 32µM* | N#CC1=C(S)N(c2ccccc2)C(c2cccs2)NC1=O (stereo not drawn) |
| -10% | COc1ccc(NC(=S)NCCc2c[nH]c3ccccc23)c(OC)c1 |
| -6% | O=C(CSc1nc(CCC2CCCC2)nc2ccccc12)NCc1ccc2c(c1)OCO2 |
| ? | COc1ccc(NC(=O)Cc2nn(C)c(=O)c3ccccc23)c2ncccc12 |
| -3% | O=C(C1CC(c2ccc(F)cc2)=NO1)N1CCN(Cc2ccccc2)CC1 (stereo not drawn) |
| -10% | NC(=O)c1ccc(NC(=O)COC(=O)c2cccc(Oc3ccccc3)c2)cc1 |
| -6% | COc1ccc(Nc2nc(Nc3ccc(OC)cc3OC)nc(N3CCN(C)CC3)n2)c(OC)c1 |
| -25% | COC(=O)CSc1nnc(-c2sc3cc(OC)ccc3c2Cl)n1C |
| -18% | O=C(Nc1cccnc1)C1CC(c2ccccc2O)=NO1 (stereo not drawn) |
| 0% | CCCCNC(=O)CCn1c(=O)c2ccccc2n(CC(=O)Nc2ccccc2OCC)c1=O |
| -16% | Cc1ccccc1N1CCN(S(=O)(=O)c2ccc3oc(=O)ccc3c2)CC1 |
| 2% | COc1ccc(Nc2nc(N)nc(C(F)(F)F)n2)c(OC)c1 |
| -10% | CCOC(=O)c1c(C)n(C)c2ccc(OC(C)=O)cc12 |
| -9% | COc1cc(NS(=O)(=O)c2ccc(NC(=S)NC(=O)CC(C)C)cc2)nc(OC)n1 |
| -7% | Cn1c(=O)c2c(ncn2CC(=O)N/N=C/C(Cl)=C/c2ccccc2)n(C)c1=O |
| -8% | COc1ccc(C(=O)OCCN=C2NS(=O)(=O)c3ccccc32)cc1OC |
| -11% | CCCc1nc2ccccc2c(=O)n1/N=C/c1ccc(O)cc1O |
| -11% | CCOC(=O)c1sc2nc3c(SCCC#N)cc(C(=O)c4cc(F)ccc4O)cn3c(=O)c2c1C |
| -20% | CCCCOCCCNc1ncnc2c1[nH]c1ccccc12 |
| -9% | Cc1ccc(NC(=O)CC2SC(=NCC3CCCO3)NC2=O)cc1Cl (stereo not drawn) |
| -11% | COCCCNC(=O)CCS(=O)(=O)Cc1ccc(C)cc1 |
| 18µM* | O=C(NCc1ccco1)c1ccc(COc2cc(Cl)ccc2Cl)cc1 |
| -1% | O=C(c1ccccc1F)N1CCN(c2cccc(C(F)(F)F)c2)CC1 |
| -10% | C#CCN1C(=O)C(O)(CC(=O)c2cccc(OC)c2)c2ccccc21 (stereo not drawn) |
| 1% | CCOC(=O)C1=C(CSc2nccn2C)NC(=O)NC1c1ccc2c(c1)OCO2 (stereo not drawn) |
| -5% | CCC1Oc2ccc(C)cc2N(CC(=O)NCc2cc(OC)ccc2OC)C1=O (stereo not drawn) |
| -24% | Cc1cccc(C)c1Nc1nnc(SCc2nc3ccccc3s2)s1 |
| -8% | CCc1ccc2[nH]c(=O)c(CN(Cc3ccc4c(c3)OCO4)C(=O)c3ccco3)cc2c1 |
| -12% | O=C(O)c1ccccc1/C=N\N=C1c2ccccc2-c2ccccc21 |
| -3% | CCOC(=O)c1ccc(S(=O)(=O)N2CCN(S(=O)(=O)CC)CC2)cc1 |
| -13% | CCOC(=O)C1CCN(C(C)=C2C(=O)c3ccccc3C2=O)CC1 |
| -14% | COc1ccc(-c2cccc(C(=O)Nc3ccc(OC)c(OC)c3)c2)cc1 |
| -9% | CCC(C)N(C(=O)COC(=O)Cc1n[nH]c(=O)c2ccccc12)C1CCS(=O)(=O)C1 (stereo not drawn) |
| -27% | CSc1nc(C)c2c(n1)N(c1ccc(C(C)C)cc1)CC2 |
| ? | COc1ccccc1N1C(=O)CC(Sc2n[nH]c(-c3cccc(C)c3)n2)C1=O (stereo not drawn) |
| -12% | CCn1c(C(C)NC(=O)c2cccs2)nc2ccccc21 (stereo not drawn) |
| -7% | Cc1ccc(N(CC(=O)O)S(=O)(=O)c2cccc3nonc23)cc1 |
| -18% | Cc1cc2c(c(=O)o1)C1(C(=O)N(CC(=O)O)c3ccccc31)C(C#N)=C(N)O2 (stereo not drawn) |
| -6% | COc1ccc(C)cc1NC(=O)C(CCS(C)(=O)=O)NC(C)=O (stereo not drawn) |
| ? | CCOC(=O)c1sc(=S)n(-c2ccc(F)c(F)c2)c1N |
| -15% | O=C(Nc1cccc(F)c1)c1cccc(S(=O)(=O)N2CCOCC2)c1 |
| -14% | CCn1c(CNc2nc3ccccc3n2C(C)C)nc2ccccc21 |
| -17% | Cc1nc2ccc(NC(=O)Cc3cccs3)cc2s1 |
| -13% | COc1ccc2c(c1)O[C@@H](c1ccc3c(c1)OCO3)[C@H](OC(=O)NS(=O)(=O)c1ccc(C)cc1)C2=O |
| -16% | CCOC(=O)C1=C(C(F)(F)F)Nc2ncnn2C1c1cc(OC)c(OC)cc1OC (stereo not drawn) |
| 0% | COc1ccc(-n2c(Cc3cccn3C)nnc2SCC(=O)N2CCCC2)cc1 |
| 0% | Cc1ccc2c(c1)nc(NCCCO)n2C |
| -14% | O=C(NC(=S)Nc1ccccc1N1CCOCC1)c1cccs1 |
| 3% | CC1=CC(C)C2COC(c3ccc[n+](C)c3)C1C2C (stereo not drawn) |

Going on with the list.
| HPGD block | smiles |
| --- | --- |
| -10% | O=C(NNC(=O)c1ccccc1Cl)c1ccncc1 |
| -1% | Cc1sc2nc(CN3CCOCC3)nc(NCCc3ccccc3)c2c1C |
| -15% | Cc1nn(-c2ccc(C(=O)Nc3nnc(C4CC4)s3)cc2)c(C)c1Cl |
| -9% | COc1ccc(C(=O)OCC(=O)NCC2CCCCC2)cc1S(=O)(=O)N1CCCc2ccccc21 |
| 28µM* | O=C(CSc1ccccc1)NCc1ccco1 |
| ? | O=C(N/N=C/c1ccc[nH]1)c1sc2ccccc2c1Cl |
| -25% | Cc1ccc(S(=O)(=O)N2C(=S)SCC2(C)C)cc1 |
| ? | S=C(c1ccccc1)N(c1ccccc1)c1ccccc1 |
| -6% | O=C(NCc1ccccc1)N[C@@H](Cc1ccccc1)C(=O)O |
| -14% | OCCN(CCO)CC(O)Cn1c2ccccc2c2ccccc21 (stereo not drawn) |
| -7% | Cc1ccc(S(=O)(=O)CC(=O)NC(C)(C)C)cc1 |
| -14% | COc1ccc(C2c3c(oc4ccccc4c3=O)C(=O)N2CC2CCCO2)cc1 (stereo not drawn) |
| -1% | CCc1cccc(C)c1NC(=O)C1CCCO1 (stereo not drawn) |
| 4.5µM* | Cc1noc(NS(=O)(=O)c2ccc(NC(=O)CSc3n[nH]c(-c4ccccc4)n3)cc2)c1C |
| -18% | COc1ccccc1/C=C(/C(=O)OCC(=O)Nc1ccccc1C)c1ccccc1 |
| -4% | O=C(CSCCNS(=O)(=O)c1ccccc1)Nc1ccccc1 |
| -10% | CCC(=O)n1nc(NCc2ccc(OC)c(OC)c2)nc1NCc1ccc(OC)c(OC)c1 |
| -3% | Nc1n[nH]c(S(=O)(=O)CCCc2ccccc2)n1 |
| -21% | Cn1c(NC(=O)CCC2CCCCC2)cc(=O)n(C)c1=O |
| -5% | CC1OC(OC2CCC3(C)C(CCC4C3CC(O)C3(C)C(C5=CC(=O)OC5)CCC43O)C2)CC(O)C1OC1CC(O)C(OC2CC(O)C(OC3OC(CO)C(O)C(O)C3O)C(C)O2)C(C)O1 (stereo not drawn) |
